KCNQ2 block: KCNQ2 channel blockers in CHO-K1 cells – cell-based, FluxOR thallium flux, B-score, primary screen (AID 2156) | O88943 | 310,000 compounds, 1.1% hits | B-score at 10 µM | 20 min; active compounds read low; only compounds with negative scores are shown here; some inactives read as strong as hits;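 active means fluorescence ratio B-score at most minus 3 library SDs, with starting brightness B-score within 2 library SDs, cut at about -5.5 in these data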
Target sequence (O88943 whole entry, looked up): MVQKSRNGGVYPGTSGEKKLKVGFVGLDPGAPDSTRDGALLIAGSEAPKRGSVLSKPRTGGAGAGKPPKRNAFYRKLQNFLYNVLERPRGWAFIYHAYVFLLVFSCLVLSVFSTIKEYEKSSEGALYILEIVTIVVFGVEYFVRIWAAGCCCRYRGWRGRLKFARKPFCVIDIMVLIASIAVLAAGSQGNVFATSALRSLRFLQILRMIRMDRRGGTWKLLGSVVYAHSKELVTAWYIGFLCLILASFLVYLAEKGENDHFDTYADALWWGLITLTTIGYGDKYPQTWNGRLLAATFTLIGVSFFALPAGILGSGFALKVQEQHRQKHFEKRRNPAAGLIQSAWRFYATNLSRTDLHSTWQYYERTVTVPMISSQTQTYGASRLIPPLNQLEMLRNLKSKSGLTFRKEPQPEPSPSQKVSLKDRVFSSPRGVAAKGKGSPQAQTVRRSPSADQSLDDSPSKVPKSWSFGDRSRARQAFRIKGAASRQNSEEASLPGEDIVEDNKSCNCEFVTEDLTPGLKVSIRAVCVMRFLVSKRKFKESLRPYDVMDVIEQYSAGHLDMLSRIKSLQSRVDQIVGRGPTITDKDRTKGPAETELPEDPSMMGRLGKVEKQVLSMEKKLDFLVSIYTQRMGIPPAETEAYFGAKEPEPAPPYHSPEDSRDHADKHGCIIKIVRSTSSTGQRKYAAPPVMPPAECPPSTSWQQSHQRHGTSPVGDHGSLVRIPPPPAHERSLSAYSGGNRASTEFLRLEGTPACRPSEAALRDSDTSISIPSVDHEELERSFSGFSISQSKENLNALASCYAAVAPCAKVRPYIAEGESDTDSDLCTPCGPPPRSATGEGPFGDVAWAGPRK
KCNQ2 block baseline: further read-out of KCNQ2 block, marked with its call; B-score; measured here: initial fluorescence intensity artifact check;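 brightness before thallium and not channel activity; 0 = typical well and far values either way flag optical interference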
Active calls of the source: *; i = inactive.

SMILES	KCNQ2 block	KCNQ2 block baseline
Cc1cc(-c2nnc(SCC(=O)Nc3ccc(Cl)cn3)n2N)n[nH]1	i	1.8
Cc1cc2oc(C(=O)Nc3cccnc3)c(C)c2cc1C	i	-0.36
Cc1ccccc1NC(=S)NCc1ccc2[nH]c3c(c2c1)CCCC3	i	-1.7
CC(=O)N(CCCN(C)C)CCC(C)CCC=C(C)C (stereo not given)	i	0.49
CC(=O)N1CCN(C(=O)COc2ccccc2C(=O)Nc2ccccc2)CC1	i	0.2
Cc1cccc(C)c1N1C(=O)CC(N2CCSCC2)C1=O (stereo not given)	i	-2.3
COc1ccccc1N1CCN(C(=O)c2ccc(CSc3ccccc3)cc2)CC1	i	-0.38
CCOC(=O)N1CCN(C(=O)CCCn2nc(C)c3sc4ccccc4c3c2=O)CC1	i	-1.6
Cc1noc(C)c1CN1C(=O)c2ccc([N+](=O)[O-])cc2C1=O	i	-0.27
CN(C)S(=O)(=O)c1cccc(COC(=O)c2cc([N+](=O)[O-])ccc2N2CCOCC2)c1	i	-2.1
COc1ccc(C2CC(=O)c3ccccc3O2)cc1 (stereo not given)	i	0.03
COC(=O)[C@@H]1CCCN1C(=O)CCc1nnc(CCc2c[nH]c3ccccc23)o1	i	0.01
Cc1ccc(CNc2ccccc2C(=O)O)s1	i	-0.07
COCCCN1C(=O)c2[nH]nc(-c3ccccc3O)c2C1c1cccc(Cl)c1 (stereo not given)	i	-0.6
O=C(NNC(=O)C1C2CCC(C2)C1C(=O)O)c1ccc(Cl)cc1 (stereo not given)	i	-0.87
Cc1nn(CC(O)c2ccccc2)c(C)c1Br (stereo not given)	i	0.36
Cc1ccccc1-c1nc(CS(=O)(=O)CC(=O)NCc2ccccc2)c(C)o1	i	-2.4
Cc1cc(C)c(C)c(S(=O)(=O)N2CCSCC2)c1C	i	1
CCOc1cc(-c2sc(Nc3ccccc3)n[n+]2C)ccc1OC	i	2
O=S(=O)(c1ccc(F)c(F)c1)N1CCN(CCc2ccccc2)CC1	i	-0.39
CC1=C(C#N)C(/C=N/OCc2ccc(Cl)cc2)CC(=O)N1 (stereo not given)	i	-0.49
COc1ccccc1N1CCN(CC(=O)c2c[nH]c3ccccc23)CC1	i	0.42
COc1ccc(/C=C2/C(=N)N3C(=NC2=O)Sc2cc(S(C)(=O)=O)ccc23)cc1OC	i	0.85
COc1ccc(C(C(=O)NCC2CCCO2)N(C(=O)c2snc(C(N)=O)c2N)c2ccccc2C)cc1OC (stereo not given)	i	-0.06

Six entries out of the list, arranged by molar mass, falling.
SMILES	KCNQ2 block	KCNQ2 block baseline
COc1ccc(C(C(=O)NCC2CCCO2)N(C(=O)c2snc(C(N)=O)c2N)c2ccccc2C)cc1OC (stereo not given)	i	-0.06
Cc1ccccc1-c1nc(CS(=O)(=O)CC(=O)NCc2ccccc2)c(C)o1	i	-2.4
COc1ccccc1N1CCN(CC(=O)c2c[nH]c3ccccc23)CC1	i	0.42
Cc1cc(C)c(C)c(S(=O)(=O)N2CCSCC2)c1C	i	1
Cc1nn(CC(O)c2ccccc2)c(C)c1Br (stereo not given)	i	0.36
Cc1ccc(CNc2ccccc2C(=O)O)s1	i	-0.07

The listing continues:
SMILES	KCNQ2 block	KCNQ2 block baseline
O=C(Nc1ccc(F)cc1)c1cccc2ccccc12	i	-1
CCNc1nc(NC(C)C)nc(Oc2ccc(OCCOc3ccc(C)cc3)nn2)n1	i	-0.9
O=C1Nc2ccc(S(=O)(=O)NCCC3=CCCCC3)c3cccc1c23	i	-2.4
CCCCC#Cc1ccc2c(c1)COc1c3ccccc3nn1-2	i	0.22
O=C(Nc1cccnc1)c1ccc([N+](=O)[O-])cc1Cl	i	0.18
CCCC(=O)OC1CC(C)N(C(=O)c2ccccc2)c2ccc(C)cc21 (stereo not given)	i	0.21
COc1ccc2c(c1)C(C)=CC(C)(C)N2C(=O)C(C)N1C(=O)c2ccccc2C1=O (stereo not given)	i	5.5
Nc1nn(-c2ccccc2)nc1C(=O)OCc1ccccc1	i	0.32
O=C(CNC(c1ccccc1)c1ccccc1)Nc1c(F)cccc1F	i	-0.49
CC1CN(CCOc2ccc(F)cc2)CC(C)O1 (stereo not given)	i	3
COc1ccc(/C=N/NC(=O)c2cccnc2)cc1Cn1nc([N+](=O)[O-])c(Br)c1C	i	0.11
O=C(CN1CCN(c2ccccn2)CC1)Nc1cccc(S(=O)(=O)N2CCOCC2)c1	i	1.7
CCC(C)(C(=O)NC1CCCC1)N(CC1CCCO1)C(=O)CNC(=O)c1ccccc1 (stereo not given)	i	-0.74
COc1ccc(C(=O)C2CCN(CC(=O)NCc3ccccc3)CC2)cc1	i	0.03
Cc1ccc(OCC(O)CN2CCC(Cc3ccccc3)CC2)c(C)c1 (stereo not given)	i	0.22
CC1CCC(C(C)C)C(OCC[N+](C)(C)C)C1 (stereo not given)	i	0.34
COc1ccc(Cl)cc1NC(=O)CN(C)C1CCCCC1	i	-0.72
Nc1c(C(=O)NC23CC4CC(CC(C4)C2)C3)sc2nc3c(c(C(F)(F)F)c12)CCC3	i	2
COc1ccc(N=C2C(=Nc3ccc(OC)cc3)N(c3ccc(OC)cc3)C(=S)N2C(=O)c2ccc(OC)cc2)cc1	i	-3.6
Cc1ccc(C)c(N2CCN(C(=S)NC3CCCCC3)CC2)c1	i	1
CC/C(C)=N/Nc1nc(-c2cc3cccc(OC)c3oc2=O)cs1	i	-0.03
COC(=O)c1ccc(CSc2nc(N3CCOCC3)c3c(c2C#N)CC(C)(C)OC3)o1	i	1.4
CC(CN1CCCCCC1)C(=O)NN (stereo not given)	i	0.04
Cc1oc(-c2ccc(Cl)cc2)nc1CS(=O)CC(=O)NCc1ccc2c(c1)OCO2 (stereo not given)	i	1
Cc1ccc(/C=N/Nc2nc3ccccc3s2)o1	i	0.66
O=C(NCc1cccnc1)c1c(F)c(F)c(F)c(F)c1F	i	0.02
Clc1ccccc1-c1nnc2sc(-c3ccc4c(c3)OCO4)nn12	i	-0.44
COCC(=O)NNC(=S)Nc1cccc(C)c1C	i	0.02
COc1ccc(C2=NOC(C(=O)NCc3ccc(F)cc3)C2)cc1OC (stereo not given)	i	-0.88
CS(=O)(=O)N1CCN(C2C3CC4CC(C3)CC2C4)CC1 (stereo not given)	i	-0.36
O=C(CSc1nnc(Cc2ccccc2)o1)Nc1ccc(Br)cn1	i	-0.46
O=c1c2nncn2c2cc(C(F)(F)F)ccc2n1CCNc1ncc(C(F)(F)F)cc1Cl	i	-0.37
CC(C)(C)c1ccc(C2C(C#N)=C(N)Oc3n[nH]c(-c4cccnc4)c32)cc1 (stereo not given)	i	0.32
Cc1cc(-c2nnc(CCC(=O)NC(C)(C)C34CC5CC(CC(C5)C3)C4)o2)no1	i	-2.1
COc1ccc(NC(=S)NC(=O)/C=C/c2ccco2)cc1	i	-0.68
Cc1ccc(S(=O)(=O)N(C)C)cc1-n1c(SCC(=O)Nc2ccc(F)cc2)nc2ccccc2c1=O	i	0.95
CCOC(=O)C(C(C)=O)=C1SC2CS(=O)(=O)CC2S1 (stereo not given)	i	0.15
COc1ccc(-c2oc3ccccc3c2C(=O)OCc2ccccc2)cc1	i	-0.13
CCCn1c(NC(=O)c2ccc(Cl)c(S(=O)(=O)N3CCCC3)c2)nc2ccccc21	i	0.05
Cc1ccc(N2C(=O)N(CC(=O)Nc3cc(C)cc(C)c3)C(=O)C2C)cc1 (stereo not given)	i	0.37
N#CCCN(Cc1cccnc1)C(=S)NC(=O)C1CC1	i	-0.67
COc1ccc(N(C(=O)c2cccnc2)S(=O)(=O)c2cccs2)cc1	i	1.7
Cc1cccc(-c2noc(CN(C(=O)C(c3ccccc3)c3ccccc3)C(C)C)n2)c1	i	2.5
Fc1cc(F)cc(-c2oncc2-c2nnnn2-c2ccccc2)c1	i	-0.04
CN(CCNC(=O)CN1CCN(Cc2ccccc2Cl)C1=O)Cc1ccccc1	i	-2
O=C(Cn1nnc(-c2ccc3c(c2)OCO3)n1)N1CCOCC1	i	2
O=P(c1ccccc1)(c1ccccc1)C(c1ccco1)N1CCOCC1 (stereo not given)	i	0.91
COc1ccccc1N1CCN(S(=O)(=O)c2ccccc2F)CC1	i	1.6

2 consecutive records from above, for reference:
SMILES	KCNQ2 block	KCNQ2 block baseline
CCOC(=O)C(C(C)=O)=C1SC2CS(=O)(=O)CC2S1 (stereo not given)	i	0.15
COc1ccc(-c2oc3ccccc3c2C(=O)OCc2ccccc2)cc1	i	-0.13

(continued)
SMILES	KCNQ2 block	KCNQ2 block baseline
Cc1sc2ncnc(N3CCN(Cc4ccccc4)CC3)c2c1-c1ccccc1	i	2.5
CC1=C(C(=O)Nc2cc(C(=O)N(C)Cc3ccccc3)ccc2C)SCCO1	i	1.7
O=C(CCc1ccccc1)Nc1ccc(F)cc1F	i	2
Cc1ccc(/C=N/NC(=O)CCSc2ccccc2)cc1	i	0.47
O=C(O)c1ccc(N/N=C/c2ccnc3ccccc23)cc1	i	-0.1
O=c1cc2n(c(=O)[nH]1)CCC1=C2CCCC1	i	1.5
CC(C)(C)C(=O)Nc1nc(-c2ccc3c(c2)OCO3)cs1	i	-0.73
O=S(=O)(c1ccc(-c2ccon2)s1)N1CCN(CCN2CCOCC2)CC1	i	-1.8
O=C(/C=C/c1ccco1)Nc1ccc(CN2CCOCC2)cc1	i	1.8
Cc1cc(NC(=O)/C=C/c2ccccc2)no1	i	-1.7
N#Cc1c(N)n(CCOC(=O)c2ccc(Cl)cc2)c2nc3ccccc3nc12	i	0.91
Cc1ccc(N2C(=O)c3ccccc3C2Nc2ccccc2F)nc1 (stereo not given)	i	1.3
COc1ccc(NC(=O)CN(C)C(=O)c2ccc(OCc3ccccc3)c(OC)c2)cc1	i	-1.4
O=C(NCCCN1CCOCC1)c1ccc2c(c1)N(Cc1ccc(F)cc1)CCS2	i	1.1
COC(=O)c1cn(CC(=O)N2CCCCCC2)c2ccccc12	i	2.1
O=S(=O)(Nc1cc(Sc2cccc3cccnc23)c(O)c2ccccc12)c1ccccc1	i	-0.3
O=C(COC(=O)c1cnccn1)Nc1ccc(Cl)cc1	i	0.62
O=C(Nc1ccc(CN2CCCCC2)cc1)c1c(F)c(F)c(F)c(F)c1F	i	0.39
COc1ccc(N2C(=O)CC(SC(C)C)C2=O)cc1 (stereo not given)	i	-0.02
Cc1ccc(C2C3=C(CC(C)(C)CC3=O)N(CCN3CCOCC3)C3=C2C(=O)CC(C)(C)C3)cc1	i	-0.04
Cc1ccc(CSCC(Nc2ccc(C(=O)O)cc2[N+](=O)[O-])C(=O)O)cc1 (stereo not given)	i	1.2
CC(=O)Oc1ccccc1C(=O)N(C1CCCCC1)C1CCCCC1	i	0.5
O=C(COC(=O)C1CCN(c2ccc(C(F)(F)F)cn2)CC1)NCc1ccc(Cl)cc1Cl	i	1.7
N#Cc1c(-c2ccccc2)c(-c2ccccc2)nn(CC(=O)NNC(=O)Nc2ccccc2)c1=O	i	3.7
Cc1oc(-c2cc3c(cc2Cl)OCO3)nc1CN1CCCC1c1ccc(F)cc1 (stereo not given)	i	0.79
O=C(/C=C/c1ccccc1)NCCc1c[nH]c2ccccc12	i	0.29
COC(=O)C1CN(C(=O)COc2ccccc2C)c2ccccc2O1 (stereo not given)	i	0.48
O=C(Nc1ccccc1)C1CCCN1S(=O)(=O)c1cccs1 (stereo not given)	i	2.9
COc1cccc(OCCNC(=O)CSc2ccc(C(F)(F)F)cc2[N+](=O)[O-])c1	i	-0.92
Oc1cccc(-n2nnnc2SCc2ccccc2F)c1	i	-0.37
COCCNC(=O)COc1ncnc2ccc(Br)cc12	i	1.5
CC(C)(C)CNC(CO)C12CC3CC(CC(C3)C1)C2 (stereo not given)	i	-0.45
COc1cccc(C(=O)Nc2nnc(-c3cccs3)o2)c1	i	1.3
CCOC(=O)C1CCN(C(=O)c2cc3c(-c4ccc(OC)c(OC)c4)nn(C)c3s2)CC1	i	0.01
CN(C)CCCN(C(=O)c1ccc2c(c1)CCCC2)c1nc2c(F)cccc2s1	i	-1.1
COc1ccc(CNCCC(c2ccc(OC(C)C)cc2)c2ccccc2OC)cc1 (stereo not given)	i	-0.01

Quoted at random: three compounds from above
SMILES	KCNQ2 block	KCNQ2 block baseline
COc1ccc(CNCCC(c2ccc(OC(C)C)cc2)c2ccccc2OC)cc1 (stereo not given)	i	-0.01
COc1cccc(OCCNC(=O)CSc2ccc(C(F)(F)F)cc2[N+](=O)[O-])c1	i	-0.92
Oc1cccc(-n2nnnc2SCc2ccccc2F)c1	i	-0.37

The list goes on.
SMILES	KCNQ2 block	KCNQ2 block baseline
Cc1ccccc1CCNC(=O)CCn1ccc2cc(S(=O)(=O)N3CCCC3)ccc21	i	-0.19
O=C(NC1CCN(S(=O)(=O)c2ccccc2C(F)(F)F)CC1)c1ccco1	i	1.9
COc1ccc(N/C(N)=N/c2nc(C)cc(=O)[nH]2)cc1	i	-1.7
CCC(=O)Nc1c2c(nn1-c1ccc(F)cc1)CS(=O)C2 (stereo not given)	i	-0.29
Cc1ccc(-n2c(SC3CCOC3=O)nc3ccccc3c2=O)cc1 (stereo not given)	i	-1.4
CCOC(=O)N1CCN(C(=O)c2ccc3c(=O)n(Cc4ccccc4OC)c(=S)[nH]c3c2)CC1	i	0.42
COc1ccc(-c2nc(-c3ccc(Br)o3)no2)cc1OC	i	-1.8
O=S(=O)(Nc1nc2ccccc2nc1Nc1ccc(N2CCOCC2)cc1)c1cc(Cl)ccc1Cl	i	2.2
CN1CCN(S(=O)(=O)c2ccc([N+](=O)[O-])cc2)CC1	i	-0.4
Cc1ccc(Cl)c2sc(N3CCN(C(=O)c4ccco4)CC3)nc12	i	-0.31
O=C(COc1cc(Cl)c(Cl)cc1Cl)Nc1ccc([N+](=O)[O-])cc1Cl	i	0.03

Screening data as filed in PubChem BioAssay.

These rows are one share of the data; count on the stated rates, not on these rows.
